From PubChem BioAssay
Mtb MbtI inh – MbtI salicylate synthase inhibitors, primary screen, biochemical, fluorescence intensity | AID 493033, 2011 | inhibition, %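 (about 17 µg/mL by stock and volumes)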 | actives 0.89% (n = 100,000) | purified MbtI enzyme, fluorescence intensity read-out | P9WFX0;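 active = above 50% in both replicates, above 80% if mildly self-fluorescent; inactive = the rest, strongly fluorescent compounds included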;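 note: 0% = mean of negative and 100% = mean of positive controls; one replicate is shown; some compounds called inactive have numbers as strong as hits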
Target sequence (P9WFX0 whole entry, looked up): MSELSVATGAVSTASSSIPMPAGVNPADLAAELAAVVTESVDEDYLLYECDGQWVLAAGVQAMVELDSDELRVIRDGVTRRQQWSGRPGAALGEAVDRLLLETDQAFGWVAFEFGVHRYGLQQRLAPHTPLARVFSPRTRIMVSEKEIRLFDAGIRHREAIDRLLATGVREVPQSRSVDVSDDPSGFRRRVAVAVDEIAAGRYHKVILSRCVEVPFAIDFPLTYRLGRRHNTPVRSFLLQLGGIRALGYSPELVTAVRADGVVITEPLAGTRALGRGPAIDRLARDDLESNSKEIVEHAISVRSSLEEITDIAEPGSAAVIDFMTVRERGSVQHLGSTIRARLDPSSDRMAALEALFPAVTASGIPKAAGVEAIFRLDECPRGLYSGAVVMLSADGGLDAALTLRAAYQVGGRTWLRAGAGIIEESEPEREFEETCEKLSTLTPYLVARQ
PV pol inh – poliovirus RdRp elongation inhibitors, primary screen, biochemical, fluorescence polarization, total intensity; AID 588519, 2011; actives 0.66% (n = 150,000); poliovirus polymerase elongation; active compounds read low; % elongation, % (compound at 16.7 µg/mL); Genome polyprotein (Poliovirus type 1 (strain Mahoney)), P03300; in the data active = % elongation below about 90%; note: some results filed as inactive read as strong as hits
Target sequence (P03300 1749-2209 limits assumed): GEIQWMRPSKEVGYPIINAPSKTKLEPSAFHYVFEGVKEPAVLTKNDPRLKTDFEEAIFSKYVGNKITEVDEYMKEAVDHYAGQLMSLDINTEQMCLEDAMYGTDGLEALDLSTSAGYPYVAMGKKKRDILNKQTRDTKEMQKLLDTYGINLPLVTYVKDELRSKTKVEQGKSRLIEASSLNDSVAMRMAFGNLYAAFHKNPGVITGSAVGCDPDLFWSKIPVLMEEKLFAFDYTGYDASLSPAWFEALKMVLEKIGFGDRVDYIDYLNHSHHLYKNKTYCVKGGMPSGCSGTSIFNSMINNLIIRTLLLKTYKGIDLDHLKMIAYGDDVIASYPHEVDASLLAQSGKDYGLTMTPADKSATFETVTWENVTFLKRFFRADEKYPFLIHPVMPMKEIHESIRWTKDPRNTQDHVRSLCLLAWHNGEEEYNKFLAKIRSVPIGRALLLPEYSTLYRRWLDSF
Mtb MenB inh – M. tuberculosis MenB inhibitors, primary screen, biochemical, absorbance; actives 0.43% (n = 100,000); inhibition, %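 (about 12 µg/mL by stock and volumes)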; 1,4-dihydroxy-2-naphthoyl-CoA synthase (Mycobacterium tuberculosis (strain ATCC 25618 / …; AID 540299, 2011; MenB enzyme assay, absorbance read-out; some hits fall short of the stated cut;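 active = mean of two replicates above 30%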;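 note: 0% = no compound and 100% = wells with inactive enzyme; the first replicate is given; strong numbers were not always called active; inactives centre near -10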
PV pol inh intensity – second read-out of PV pol inh, no call of its own (marks repeat the call); % elongation; measured here: total intensity read-out; formula for this scale not given here;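 total fluorescence in place of polarization; lower means less elongation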
Active calls of the source: *. Compounds were not picked by outcome; 1.7% or so of the library scored in one or more.

Results for CCOC(=O)C1CCCCN1S(=O)(=O)c1ccc2c(c1)C(=C(C)C)C(=O)N2 (configuration not stated) ?
Mtb MbtI inh: -36; PV pol inh: 103; Mtb MenB inh: 1; PV pol inh intensity: 103

How did O=C(/C=C/c1ccc2c(c1)OCCO2)NC1CCCCC1 do in these assays?
Mtb MbtI inh: -1; PV pol inh: 104; Mtb MenB inh: -21; PV pol inh intensity: 107

Results for COc1cccc(C2=NS(=O)(=O)N(C)C(C(=O)NC(C)(C)CO)=C2)c1 ?
Mtb MbtI inh: 3; PV pol inh: 105; Mtb MenB inh: -27; PV pol inh intensity: 99

Results for CCN(CC)S(=O)(=O)c1ccc(NC(=O)COc2ncnc3sc(C)c(C)c23)cc1 ?
Mtb MbtI inh: -6; PV pol inh: 110; Mtb MenB inh: -30; PV pol inh intensity: 103

Results for NC(C(=O)O)C(O)(c1ccccc1)C(F)(F)C(F)(F)F (configuration not stated) ?
Mtb MbtI inh: -17; PV pol inh: 102; PV pol inh intensity: 104

How did Cc1ccc(-c2nc3ccccc3nc2NN)cc1 do in these assays?
Mtb MbtI inh: -23; PV pol inh: 102; PV pol inh intensity: 103

How did CC(C)CNC(=O)C1=CC(c2cccs2)=NS(=O)(=O)N1C do in these assays?
Mtb MbtI inh: -4; PV pol inh: 105; Mtb MenB inh: -27; PV pol inh intensity: 103

What do the screens show for `CCOC(=O)c1nccn1CC(=O)Nc1cccc(Cl)c1C`?
Mtb MbtI inh: -6; PV pol inh: 101; Mtb MenB inh: -14; PV pol inh intensity: 104

Results for CC(C)c1ccc(NC(=S)NCCO)cc1 ?
Mtb MbtI inh: 1; PV pol inh: 97; Mtb MenB inh: 1; PV pol inh intensity: 106

What do the screens show for `C/C=C(/C)C(=O)OC1CC(O)(C(C)C)C2C(OC(=O)c3ccc(O)cc3)CC(C)=CCC12C` (configuration not stated)?
PV pol inh: 103; Mtb MenB inh: -19; PV pol inh intensity: 111

Results for CN(C)c1ccc(CN2C(=O)CCC2(C)C(=O)N2CCCC2)cc1 (configuration not stated) ?
Mtb MbtI inh: -1; PV pol inh: 103; Mtb MenB inh: -17; PV pol inh intensity: 103

What do the screens show for `N#CCCN(Cc1ccccc1)S(=O)(=O)c1ccccc1`?
Mtb MbtI inh: -4; PV pol inh: 98; Mtb MenB inh: 3; PV pol inh intensity: 101

How did O=C(CCBr)N1CCN(C(=O)CCBr)CC1 do in these assays?
Mtb MbtI inh: -8; PV pol inh: 99; Mtb MenB inh: 4; PV pol inh intensity: 101

How did COc1cc(C(=O)C(C#N)c2nc3ccccc3s2)cc(OC)c1OC (configuration not stated) do in these assays?
PV pol inh: 104; Mtb MenB inh: -9; PV pol inh intensity: 103

How did O=C1Nc2ccccc2SC1C1C(=O)Nc2ccccc21 (configuration not stated) do in these assays?
PV pol inh: 109; Mtb MenB inh: -3; PV pol inh intensity: 103

Results for COC(=O)C1=NOC2(CC(=O)N(c3ccc(Cl)cc3)C2=O)C1 (configuration not stated) ?
Mtb MbtI inh: -6; PV pol inh: 101; Mtb MenB inh: 9; PV pol inh intensity: 104

What do the screens show for `CCNC(=S)N/N=C/c1ccc(O)cc1`?
Mtb MbtI inh: -4; PV pol inh: 100; Mtb MenB inh: -9; PV pol inh intensity: 100

Results for O=C(Oc1ccc2c3c(c(=O)oc2c1)CCC3)C1CCCCC1 ?
Mtb MbtI inh: -3; PV pol inh: 102; Mtb MenB inh: -13; PV pol inh intensity: 101

How did Cc1cc2cc(CNC(=O)Cc3cccc4ccccc34)ccc2[nH]1 do in these assays?
Mtb MbtI inh: 21; PV pol inh: 102; Mtb MenB inh: -38; PV pol inh intensity: 102

How did CC1(C)CC(C(CC(=O)O)Cc2ccccc2)CCO1 (configuration not stated) do in these assays?
Mtb MbtI inh: -3; PV pol inh: 102; Mtb MenB inh: 14; PV pol inh intensity: 107

Some of these compounds in order of number of heavy atoms, falling.
What do the screens show for `C/C=C(/C)C(=O)OC1CC(O)(C(C)C)C2C(OC(=O)c3ccc(O)cc3)CC(C)=CCC12C` (configuration not stated)?
PV pol inh: 103; Mtb MenB inh: -19; PV pol inh intensity: 111

How did COc1cc(C(=O)C(C#N)c2nc3ccccc3s2)cc(OC)c1OC (configuration not stated) do in these assays?
PV pol inh: 104; Mtb MenB inh: -9; PV pol inh intensity: 103

How did Cc1cc2cc(CNC(=O)Cc3cccc4ccccc34)ccc2[nH]1 do in these assays?
Mtb MbtI inh: 21; PV pol inh: 102; Mtb MenB inh: -38; PV pol inh intensity: 102

Results for CN(C)c1ccc(CN2C(=O)CCC2(C)C(=O)N2CCCC2)cc1 (configuration not stated) ?
Mtb MbtI inh: -1; PV pol inh: 103; Mtb MenB inh: -17; PV pol inh intensity: 103

Results for O=C(Oc1ccc2c3c(c(=O)oc2c1)CCC3)C1CCCCC1 ?
Mtb MbtI inh: -3; PV pol inh: 102; Mtb MenB inh: -13; PV pol inh intensity: 101

Results for COC(=O)C1=NOC2(CC(=O)N(c3ccc(Cl)cc3)C2=O)C1 (configuration not stated) ?
Mtb MbtI inh: -6; PV pol inh: 101; Mtb MenB inh: 9; PV pol inh intensity: 104

What do the screens show for `N#CCCN(Cc1ccccc1)S(=O)(=O)c1ccccc1`?
Mtb MbtI inh: -4; PV pol inh: 98; Mtb MenB inh: 3; PV pol inh intensity: 101

How did CC1(C)CC(C(CC(=O)O)Cc2ccccc2)CCO1 (configuration not stated) do in these assays?
Mtb MbtI inh: -3; PV pol inh: 102; Mtb MenB inh: 14; PV pol inh intensity: 107

How did O=C(CCBr)N1CCN(C(=O)CCBr)CC1 do in these assays?
Mtb MbtI inh: -8; PV pol inh: 99; Mtb MenB inh: 4; PV pol inh intensity: 101

What do the screens show for `CCNC(=S)N/N=C/c1ccc(O)cc1`?
Mtb MbtI inh: -4; PV pol inh: 100; Mtb MenB inh: -9; PV pol inh intensity: 100

Later entries.
Results for CCOC(=O)c1sc(C)c2c(=O)n(Cc3ccccc3)c(C)nc12 ?
Mtb MbtI inh: 9; PV pol inh: 99; Mtb MenB inh: -10; PV pol inh intensity: 103

Results for COC(=O)c1ccccc1NC(=O)N1CCOc2ccccc21 ?
Mtb MbtI inh: -1; PV pol inh: 100; Mtb MenB inh: 0; PV pol inh intensity: 101

How did C/C(=N\N)c1ccc2c(c1)-c1ccccc1C2 do in these assays?
Mtb MbtI inh: 9; PV pol inh: 102; Mtb MenB inh: 4; PV pol inh intensity: 108

What do the screens show for `Cc1cccc(Cn2c(=O)n(Cc3ccccc3)c(=O)c3c(C)c(C)sc32)c1`?
Mtb MbtI inh: 0; PV pol inh: 102; Mtb MenB inh: -4; PV pol inh intensity: 101

What do the screens show for `COc1ccccc1C1CCN(C(=O)CSCc2cccc3ccccc23)CC1`?
Mtb MbtI inh: -13; PV pol inh: 98; Mtb MenB inh: -1; PV pol inh intensity: 92

What do the screens show for `CCSc1nnc(-c2ccccc2)n1-c1ccccc1`?
Mtb MbtI inh: -8; PV pol inh: 102; Mtb MenB inh: -18; PV pol inh intensity: 98

What do the screens show for `COCCN(Cc1nnc(-c2cccs2)o1)C(=O)c1cc2ccccc2o1`?
Mtb MbtI inh: 12; PV pol inh: 103; Mtb MenB inh: -15; PV pol inh intensity: 106

How did CCOC(=O)c1nc2ccccc2nc1NCCOC do in these assays?
Mtb MbtI inh: 5; PV pol inh: 77; Mtb MenB inh: -122; PV pol inh intensity: 169

Results for O=C(CSc1cc(Cl)ccc1Cl)NCCCn1ccnc1 ?
Mtb MbtI inh: 8; PV pol inh: 100; PV pol inh intensity: 92

What do the screens show for `CCOC(=O)Cc1nnc2c(Nc3ccccc3OC)nc3nonc3n12`?
Mtb MbtI inh: -7; PV pol inh: 100; Mtb MenB inh: -52; PV pol inh intensity: 104

How did CCOC(=O)c1c(NC(C)=O)sc2c1CCCCC2 do in these assays?
PV pol inh: 109; Mtb MenB inh: -1; PV pol inh intensity: 113

How did CCOC(=O)Cc1csc(-c2ccc(Oc3ccc(C(F)(F)F)cn3)cc2)n1 do in these assays?
Mtb MbtI inh: 5; PV pol inh: 105; Mtb MenB inh: -3; PV pol inh intensity: 108

Results for Brc1ccc(NC2=NCCCCCC2)cc1 ?
Mtb MbtI inh: -2; PV pol inh: 103; Mtb MenB inh: 1; PV pol inh intensity: 98

What do the screens show for `CCC(C)C1Nc2ccc(C(=O)NCCc3ccc(OC)c(OC)c3)cc2NC1=O` (configuration not stated)?
Mtb MbtI inh: 6; PV pol inh: 102; Mtb MenB inh: -18; PV pol inh intensity: 104

Results for O=C(OCc1ccco1)C1c2ccccc2Oc2ccccc21 ?
Mtb MbtI inh: -2; PV pol inh: 104; Mtb MenB inh: -6; PV pol inh intensity: 102

How did CC1C(=O)c2ccccc2OC1O (configuration not stated) do in these assays?
Mtb MbtI inh: 45; PV pol inh: 103; Mtb MenB inh: -3; PV pol inh intensity: 102

How did CC(C(=O)Nc1ccccc1C(=O)NCc1ccco1)N(c1ccccc1)S(C)(=O)=O (configuration not stated) do in these assays?
Mtb MbtI inh: -110; PV pol inh: 99; Mtb MenB inh: -28; PV pol inh intensity: 100

What do the screens show for `Cc1ccc(C)n1-c1cccc(N)c1`?
Mtb MbtI inh: 10; PV pol inh: 102; Mtb MenB inh: -1; PV pol inh intensity: 106

Results for Nc1cc(C(=O)N2CCN(c3cccc(Cl)c3)CC2)ccc1N1CC2CC(C1)c1cccc(=O)n1C2 (configuration not stated) ?
Mtb MbtI inh: -9; PV pol inh: 101; Mtb MenB inh: 5; PV pol inh intensity: 102

What do the screens show for `CC(C)CNC(=O)COc1ccc(-c2nnco2)cc1`?
Mtb MbtI inh: -12; PV pol inh: 104; Mtb MenB inh: -18; PV pol inh intensity: 110

Results for CC12CCC(O)CC1=CCC1C2CCC2(C)/C(=N/NC(=O)CCC(=O)O)CCC12 (configuration not stated) ?
Mtb MbtI inh: 3; Mtb MenB inh: -3

Results for Cc1cc(C(=O)CSc2nc(N)c(C#N)cc2C#N)c(C)n1CCC1=CCCCC1 ?
Mtb MbtI inh: -8; PV pol inh: 113; Mtb MenB inh: -25; PV pol inh intensity: 127

Results for Cc1c(C#N)c2ccccc2n1CC(=O)NC1CCCCCC1 ?
Mtb MbtI inh: -2; PV pol inh: 101; Mtb MenB inh: -13; PV pol inh intensity: 100

What do the screens show for `CN1CCN(Cc2c(Cl)cccc2Cl)CC1`?
PV pol inh: 100; Mtb MenB inh: -2; PV pol inh intensity: 100

What do the screens show for `O=C(c1ccc(Cl)c(Cl)c1)N1CCc2ccccc21`?
PV pol inh: 107; Mtb MenB inh: -12; PV pol inh intensity: 113

Results for Cc1cc(C)c(S(N)(=O)=O)cc1S(N)(=O)=O ?
PV pol inh: 102; Mtb MenB inh: -10; PV pol inh intensity: 105

Results for Oc1ccccc1C1=Nc2ncnn2C(c2ccc(Cl)cc2)C1 (configuration not stated) ?
PV pol inh: 107; Mtb MenB inh: -27; PV pol inh intensity: 103

Results for O=c1ccccn1Cc1cn2ccccc2n1 ?
Mtb MbtI inh: -8; PV pol inh: 104; Mtb MenB inh: -48; PV pol inh intensity: 100

What do the screens show for `O=C(N1CCOc2ccccc21)n1ccnc1`?
Mtb MbtI inh: 4; PV pol inh: 101; Mtb MenB inh: 4; PV pol inh intensity: 105

How did CCC(=O)Nc1cc2nc3[nH]c(=O)n(C4CCCCCC4)c(=O)c3nc2cc1C do in these assays?
Mtb MbtI inh: -11; PV pol inh: 101; Mtb MenB inh: -48; PV pol inh intensity: 108

What do the screens show for `Cc1cc(CN2c3cccc4cccc(c34)S2(=O)=O)no1`?
Mtb MbtI inh: 36; PV pol inh: 104; Mtb MenB inh: -12; PV pol inh intensity: 108

How did CC(C)(C)c1ccc(S(=O)(=O)NC(=O)c2cccc(Oc3cccc(C(F)(F)F)c3)n2)cc1 do in these assays?
PV pol inh: 106; Mtb MenB inh: -10; PV pol inh intensity: 110

Results for CC1=C2[C@@H]3OC(=O)[C@H](C)C3CC[C@@]2(C)C=CC1=O (some centres not stated) ?
Mtb MbtI inh: 2; PV pol inh: 98; Mtb MenB inh: -4; PV pol inh intensity: 103

How did O=C(CSc1ccc2c(c1)OCCO2)N1CCN(Cc2ccccc2)CC1 do in these assays?
Mtb MbtI inh: 1; Mtb MenB inh: -9

How did Cc1ccc(C(=O)CN(C)C2CCCCC2)cc1 do in these assays?
Mtb MbtI inh: 13; PV pol inh: 104; Mtb MenB inh: -8; PV pol inh intensity: 113

How did Cc1ccc(N2C(=O)C(O)=CC2(O)c2ccccc2)cc1 (configuration not stated) do in these assays?
PV pol inh: 107; Mtb MenB inh: -2; PV pol inh intensity: 109

Results for CC(C)CCOc1cccc(OCC(=O)NCC2CCCO2)c1 (configuration not stated) ?
Mtb MbtI inh: -7; PV pol inh: 102; PV pol inh intensity: 106

How did CCOC(=O)c1oc2ccccc2c1COc1ncnc2ccccc12 do in these assays?
Mtb MbtI inh: -3; PV pol inh: 114; Mtb MenB inh: -6; PV pol inh intensity: 125

What do the screens show for `Cc1cc(NS(=O)(=O)c2ccc(NCN3C(=O)c4ccccc4C3=O)cc2)no1`?
Mtb MbtI inh: -7; PV pol inh: 104; Mtb MenB inh: 4; PV pol inh intensity: 112

What do the screens show for `CC(=O)Nc1ccc(Cl)c(NC(=O)c2ncoc2-c2cccc(C)c2)c1`?
Mtb MbtI inh: 4; PV pol inh: 102; Mtb MenB inh: -6; PV pol inh intensity: 100
